eIF4H FP inh = human eIF4H binding inhibitors, primary screen, translation initiation inhibitor project, biochemical, uHTS, fluorescence polarization. Eukaryotic translation initiation factor 4H (Homo sapiens), Q15056. eIF4H fluorescence polarization binding assay. inhibition, % at 35 µM. 0.94% of 290,000 active. AID 2012, 2009;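 active = 50% or more with normal probe brightness, or confirmed in later tests; inconclusive = above 50% with abnormal brightness, or retests that disagree; inactive = below 50% or failed in later tests; about a fifth of its hits are not listed in these tables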;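 also: calls also rest on retests at 20 µM and on dose response follow-up; 0% = protein and probe with vehicle and 100% = probe without protein; strong numbers were not always called active; many hits fall short of the cut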
Rce1 inhib = yeast Rce1p protease inhibitors, primary screen, biochemical, fluorescence, cell-free homogeneous | CAAX prenyl protease 2 (Saccharomyces cerevisiae (strain ATCC 204508 / S288c)), Q03530 | yeast membranes, quenched prenylated peptide cleavage fluorescence | calls only | 0.27% of 290,000 active;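 active = fall in fluorescence gain of 50% or more versus controls, with final raw signal at or below 3038400; inconclusive = same 50% fall but final raw signal above 3038400; inactive = fall in fluorescence gain under 50%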;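 also: plate controls were neutral control wells for no effect and wells lacking membranes for full effect; tested at 10 µM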
Target sequence (Q03530 whole entry, looked up): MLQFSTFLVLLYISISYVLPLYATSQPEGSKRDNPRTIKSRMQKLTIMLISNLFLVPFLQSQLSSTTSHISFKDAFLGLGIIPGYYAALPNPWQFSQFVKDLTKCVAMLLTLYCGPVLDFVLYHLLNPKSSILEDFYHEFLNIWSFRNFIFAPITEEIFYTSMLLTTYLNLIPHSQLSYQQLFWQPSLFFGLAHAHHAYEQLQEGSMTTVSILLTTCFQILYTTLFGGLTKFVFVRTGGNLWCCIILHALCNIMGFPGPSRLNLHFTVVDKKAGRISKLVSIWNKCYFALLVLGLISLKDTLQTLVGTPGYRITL
Yeast UUG start = modulators of yeast start codon fidelity, primary screen, whole organism, S. cerevisiae, single point, plate reader; S. cerevisiae UUG-firefly luciferase reporter, luminescence/redox ratio; activity score, % at 18.7 µM; 0.13% of 350,000 active; AID 602363, 2012;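 active = replicate mean at a twofold rise or more, about +100% in these data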;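 also: firefly luciferase made from a UUG start codon reports start codon fidelity; reporter light over untreated wells divided by growth signal over untreated wells; some hits fall short of that in this replicate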
MT1-MMP act inh = blockers of MT1-MMP proenzyme processing, primary screen, HT1080 RFP-PRO-GFP cells, GFP/RFP fluorescence | Matrix metalloproteinase-14 (Homo sapiens), P50281 | GFP/RFP ratio fluorescence, overnight; percent of plate control window, DMSO zero | GFP/RFP ratio change, % at 20 µM | 0.061% of 360,000 active | AID 651647, 2012;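 active = GFP/RFP ratio change of at least 30% with cell ATP level not reduced by more than half and red fluorescence within 50% of control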; also: strong numbers were not always called active
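Material – HT1080 RFP-PRO-GFP cells · Control set – DMSO wells and RFP-L50D-GFP cells · Incubation – overnight cell settling, then overnight compound exposure, 37 °C, 5% CO2 · Compound dosing – single-point 20 µM compound, 1% DMSO · Read-out – GFP/RFP fluorescence ratio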
PABP FP inh = PABP poly(A) RNA binding inhibitors, primary screen, biochemical, fluorescence polarization, uHTS; Polyadenylate-binding protein 1 (Homo sapiens), P11940; inhibition, % at 35 µM; 1% of 290,000 active;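 active = 50% or more with normal probe brightness, or confirmed in later tests; inconclusive = above 50% with abnormal brightness, or retests that disagree; inactive = below 50% or failed in later tests; about a fifth of its hits are not listed in these tables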;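 also: calls also rest on retests at 20 µM and on dose response follow-up; controls were probe without protein and protein plus probe with vehicle; some compounds called inactive have numbers as strong as hits; many hits fall short of the cut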
Target sequence (P11940 whole entry, looked up): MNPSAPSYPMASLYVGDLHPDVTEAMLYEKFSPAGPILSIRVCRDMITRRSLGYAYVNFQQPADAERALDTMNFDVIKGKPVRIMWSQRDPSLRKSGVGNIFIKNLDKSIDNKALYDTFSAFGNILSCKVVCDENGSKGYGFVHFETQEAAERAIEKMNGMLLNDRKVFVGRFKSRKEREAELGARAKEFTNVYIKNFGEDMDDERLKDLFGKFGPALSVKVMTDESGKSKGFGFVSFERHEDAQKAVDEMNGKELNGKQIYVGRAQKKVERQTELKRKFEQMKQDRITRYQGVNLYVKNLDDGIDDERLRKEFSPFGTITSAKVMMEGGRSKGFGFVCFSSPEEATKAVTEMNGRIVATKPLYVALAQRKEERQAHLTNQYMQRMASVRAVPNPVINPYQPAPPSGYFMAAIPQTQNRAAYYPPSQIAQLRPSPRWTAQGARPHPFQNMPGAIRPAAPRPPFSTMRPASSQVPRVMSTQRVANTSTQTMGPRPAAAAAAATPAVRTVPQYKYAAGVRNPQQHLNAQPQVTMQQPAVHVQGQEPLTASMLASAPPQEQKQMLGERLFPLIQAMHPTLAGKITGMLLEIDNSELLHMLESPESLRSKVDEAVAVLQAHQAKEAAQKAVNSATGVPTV
HIV Env fusion = inhibitors of HIV-1 Env-driven cell-cell fusion, primary screen, HeLa-JRFL effector, CEM21 target cells, luciferase; inhibition, % at 12.3 µM; 1.1% of 360,000 active;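 active = mean replicate inhibition score of at least 50 and every replicate individually at or above 50; inconclusive = only one of the two criteria met; inactive = mean below 50 and not all replicates reaching 50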;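 also: 0% = plate neutral controls and 100% = maraviroc near 300 nM; one replicate is shown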
CSC inhib = cancer stem cell viability inhibitors, primary screen, luminescence; 1.1% of 300,000 active; inhibition, % at 7.5 µM; cancer stem cell-like cells viability;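 active = mean at 75% or more and at least half the replicates too; inconclusive = mean and replicates disagree; tested in HMLE shEcad cells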;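 also: 0% = median of negative and 100% = median of positive control wells; the first replicate is given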
eIF4H FP inh retest = also measured in eIF4H FP inh; calls as there; inhibition, %; compound at 20 µM; confirmation average;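 mean of two retest wells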
PABP FP inh retest = further read-out of PABP FP inh, marked with its call; inhibition, %; compound at 20 µM; confirmation repeats;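 mean of two retest wells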
MT1-MMP act inh RFP = recorded beside MT1-MMP act inh, whose call it bears; RFP signal change, %; measured here: RFP expression control read;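 0 = vehicle wells; hits needed this value within 50% of zero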
* hit, by the source's call; i = inactive; ? = inconclusive; nt = no result given. An excerpt; count on the stated rates, not on these rows.

SMILES | eIF4H FP inh | Rce1 inhib | Yeast UUG start | MT1-MMP act inh | MT1-MMP act inh RFP | PABP FP inh | HIV Env fusion | CSC inhib | others
Cc1ncsc1CCC(=O)N1CCCC(C(=O)c2ccc3c(c2)OCO3)C1 (centres undefined) | -5 | i | -13 | 0 | -2 | -4 | 17 | -16
Cc1cc(SCc2cc(=O)n3ccsc3n2)nc2ccccc12 | -6 | i | nt | -9 | -5 | 14 | 39 | -1
CNC(=O)NC1CCCc2ccccc21 (centres undefined) | 14 | i | -12 | -1 | 1 | -6 | -62 | -7
Cc1nn(C)c(C(=O)N/N=C/c2ccccc2)c1[N+](=O)[O-] | 0 | i | -19 | 7 | 5 | 3 | 2 | -14
CCc1occc(=O)c1Oc1cc(NN2CCCCC2)c([N+](=O)[O-])cc1[N+](=O)[O-] | 2 | i | -10 | 0 | 0 | 9 | -26 | -8
COC(=O)c1ccc2c(c1)S(=O)(=O)NC(=NCc1ccco1)S2 | 3 | i | -14 | -2 | -2 | 7 | nt | -2
C[C@@]12C(=O)N(Cc3ccc(Cl)cc3)CC(=O)N1[C@H]1c3ccccc3OC[C@@H]1[C@@H]2c1ccccc1 | nt | nt | -4 | 2 | -5 | nt | 29 | -5
O=C(Cn1nc(-c2ccccc2)ccc1=O)NCc1ccc(F)cc1 | 5 | i | nt | 0 | 0 | 4 | -6 | 3
COc1ccc(OC)c(NC(=O)N2CCCc3ccccc32)c1 | 1 | i | -16 | -2 | 4 | -4 | nt | 6
Cc1ccc(CNC(=O)C2CCC(=O)N2Cc2ccc(F)cc2)cc1 (centres undefined) | -4 | i | -17 | 2 | 3 | 4 | -3 | nt
CC(C)C[C@H](NC(=O)[C@@H](Cc1ccccc1)n1c(=O)[nH]c2ccccc2c1=O)C(=O)N[C@@H](Cc1ccccc1)C(=O)O | 4 | i | 1 | -3 | 3 | 6 | nt | -2
Cc1n[nH]c(C)c1NC(=O)CSc1nnnn1-c1cccc(F)c1 | nt | nt | -19 | -5 | -1 | nt | -18 | -13
CSc1ccccc1C(=O)Nc1ccccc1C(=O)NC(C)C | -11 | i | -3 | -1 | -3 | -1 | 10 | 5
CCOc1ccc(OCCCCNC(C)(C)C)cc1 | 16 | i | nt | -2 | 3 | 6 | -13 | -3
CC(NC(=O)CNC(=O)C1O[C@@H]2OC(C)(C)O[C@@H]2[C@H]2OC(C)(C)O[C@@H]12)C(=O)O (some centres undefined) | 2 | i | -14 | -1 | 3 | -9 | 2 | -6
O=C(Nc1ccc(S(=O)(=O)Nc2nccs2)cc1)/C(=C/c1ccccc1Cl)NC(=O)c1ccccc1 | 13 | i | -16 | -2 | -1 | 18 | -7 | -9
CCOC(=O)N/N=C\c1ccccc1OC/C=C/c1ccccc1 | -10 | i | 0 | -6 | -5 | 4 | -69 | 16
Cc1onc(-c2ccccc2)c1CNS(=O)(=O)c1cccc(Cl)c1 | 44 | i | -3 | 1 | -1 | 54 | 30 | 11 | eIF4H FP inh retest=5;PABP FP inh retest=2
CN(C)S(=O)(=O)c1ccc(=S)[nH]c1 | 7 | i | nt | -8 | -1 | 0 | -18 | -8
COc1ccc(C2/C=C\CN(Cc3ccco3)CC(=O)N2Cc2ccc(F)cc2)cc1 (centres undefined) | -8 | i | -17 | -3 | -3 | -10 | -5 | -2
O=c1[nH]c(=O)c2nnc(N/N=C\c3ccc(O)cc3)nc2[nH]1 | -1 | i | nt | 1 | 4 | 9 | 3 | -1
COc1ccc(OC)c(NC(=O)c2sc3nc(C)cc(C)c3c2N)c1 | 0 | i | -20 | 1 | 1 | 5 | -9 | -3
O=C(Nc1ccc([N+](=O)[O-])cc1)Nn1cnnc1 | 0 | i | -19 | -1 | 5 | 6 | -2 | nt
COc1ccccc1-c1cnc(C(O)c2ccc(Cl)cc2C)[nH]1 (centres undefined) | nt | nt | -21 | -2 | 0 | nt | -18 | nt
Cc1cc(C(=O)NCc2cccs2)no1 | -7 | i | -20 | 4 | -1 | 4 | 0 | -9
(further entries)
SMILES | eIF4H FP inh | Rce1 inhib | Yeast UUG start | MT1-MMP act inh | MT1-MMP act inh RFP | PABP FP inh | HIV Env fusion | CSC inhib | others
CC#CCN1c2ccccc2[C@]23C[C@@H](C(=O)OC)N(C(=O)NCCBr)C2=NC(C(=O)OC)=C(C(=O)OC)[C@H]13 | nt | i | -3 | -4 | 0 | nt | -21 | -8
COc1cc(C(=O)Oc2cccc(/C=N/NC(=O)c3cccnc3)c2)cc(OC)c1OC | 0 | i | -36 | 0 | -4 | 2 | 9 | 9
CCC(=O)N1CCCc2cc(S(=O)(=O)N3CCN(c4ccccc4F)CC3)ccc21 | 0 | i | 12 | 0 | -25 | 4 | 41* | -9
CC(C)CC(NC(=O)C1CCC(C)CC1)C(=O)N1CCN(c2ccccn2)CC1 (centres undefined) | -7 | i | -14 | 3 | 2 | -4 | -21 | nt
Cc1n[nH]c(=O)n(N=Cc2c[nH]c3ccccc23)c1=O | nt | nt | -8 | 4 | 5 | nt | 10 | nt
COC(=O)Cn1c(=NC(=O)c2ccc(S(=O)(=O)N3CCOCC3)cc2)sc2cc(S(N)(=O)=O)ccc21 | -3 | i | -9 | -1 | 0 | 4 | nt | -7
CCOC(=O)C/C(=N\Nc1ncnc2ccccc12)c1ccccc1 | 5 | i | -31 | 0 | -2 | 10 | 0 | 16
Cc1ccc(S(=O)(=O)N(C)CC(=O)OCC(=O)NC(=O)Nc2ccc3c(c2)OCCO3)cc1 | -4 | i | nt | 3 | 6 | -3 | -2 | 0
CCOc1ccc(NC(=O)CCC(=O)NNS(=O)(=O)c2ccccc2[N+](=O)[O-])cc1 | 6 | i | nt | -12 | -6 | -1 | 12 | 3
COc1cccc(CNS(=O)(=O)c2cc3c4c(c2)CCN4C(=O)CC3)c1 | nt | i | -14 | 0 | -1 | nt | -1 | -11
COc1cc2c(cc1OC)C(c1ccc(Br)cc1)NC(=O)C2 (centres undefined) | -6 | i | -9 | 9 | 4 | -6 | 7 | -15
CCC(C(=O)NCc1ccco1)N(C(=O)CNS(=O)(=O)c1ccccc1)c1ccccc1C (centres undefined) | 0 | i | nt | 0 | 1 | 3 | 4 | -14
CC1CCCC(C)N1C(=O)CNCc1ccc2c(c1)OCO2 (centres undefined) | 4 | i | -16 | 0 | 0 | 8 | -1 | 2
CCCn1c(=O)c(C(=O)NCCCc2ccccc2)c(O)c2ccccc21 | 0 | i | -4 | -2 | -2 | -1 | 37 | 35
N/C(Cn1cncn1)=N\NC(=O)c1ccc(Cl)cc1Cl | -6 | i | nt | -5 | 1 | -10 | 24 | -5
O=C(CN1c2cccc3cccc(c23)S1(=O)=O)NC1CCCCC1 | nt | nt | -1 | 2 | -8 | nt | nt | -23
CC(=O)c1cccc(CN2CCCC(CCC(=O)NCc3ccc(C)o3)C2)c1 (centres undefined) | -10 | i | 15 | -2 | 2 | 4 | 20 | 7
O=C(c1cc(-c2ccc(Cl)cc2)on1)N1CCCC1 | 5 | i | -27 | -7 | -3 | 7 | -69 | -1
CC(=O)Nc1cccc2c1C(=O)N(c1cccc(C)c1)C2=O | -15 | i | -6 | -6 | 1 | 10 | 34 | -11
CCc1nc2ccc(C(=O)NC3CCN(Cc4ccccc4)CC3)cn2c1N(CC)Cc1cccc(Br)c1 | nt | nt | -26 | -3 | -7 | nt | 4 | nt
COc1ccc(S(=O)(=O)N2CCC(C(=O)Oc3ccc(C)cc3)CC2)cc1OC | nt | i | -13 | 0 | 4 | nt | 2 | 10
NNC(=O)c1cnn(-c2ccccc2)c1C(F)(F)F | 2 | i | -1 | 3 | 0 | 10 | -10 | nt
CN(C)C(CNC(=O)c1cccc(S(=O)(=O)NCc2ccccc2)c1)c1ccccc1 (centres undefined) | nt | nt | -5 | 9 | 3 | nt | -36 | nt
S=c1[nH]nc(COc2ccccc2)n1/N=C/c1ccc(Br)cc1 | -2 | i | -12 | 2 | -1 | -8 | -11 | -7
COc1cnc(-c2ccccn2)nc1Sc1ccccc1 | -1 | i | nt | 8 | -1 | 4 | 2 | 17

The last 3 entries of the section before come first, to join the parts:
SMILES | eIF4H FP inh | Rce1 inhib | Yeast UUG start | MT1-MMP act inh | MT1-MMP act inh RFP | PABP FP inh | HIV Env fusion | CSC inhib | others
CN(C)C(CNC(=O)c1cccc(S(=O)(=O)NCc2ccccc2)c1)c1ccccc1 (centres undefined) | nt | nt | -5 | 9 | 3 | nt | -36 | nt
S=c1[nH]nc(COc2ccccc2)n1/N=C/c1ccc(Br)cc1 | -2 | i | -12 | 2 | -1 | -8 | -11 | -7
COc1cnc(-c2ccccn2)nc1Sc1ccccc1 | -1 | i | nt | 8 | -1 | 4 | 2 | 17
FC(F)(Cl)c1nnc2ccc(Cl)nn12 | -4 | i | nt | -2 | 1 | 10 | 9 | 6
C=CCN1C(=O)C(O)(CC(=O)c2c(C)n[nH]c2C)c2cc(Br)ccc21 (centres undefined) | -10 | i | -9 | -5 | 1 | 0 | nt | -19
CC(C)CN1C(=O)NC(NC(=O)c2ccco2)(C(F)(F)F)C1=O (centres undefined) | 2 | i | nt | 8 | 5 | 7 | nt | -3
CC1(C)CCc2nc(SCc3ccccc3)c(C#N)cc2C1 | 2 | i | -17 | -6 | -6 | 19 | -18 | 67
COc1cc(C(=O)Nc2ccc(S(=O)(=O)Nc3cc(C)on3)cc2)cc(OC)c1OC | 1 | i | -23 | 24 | -6 | 4 | nt | -16
CC(C)(C)OC(=O)NCCCC[C@H](NC(=O)c1nc[nH]c1C(=O)NCc1ccccc1)C(=O)OC(C)(C)C | 0 | i | -5 | 0 | -14 | -12 | -21 | 20
COC(=O)c1ccc(NC2=C(Cl)C(=O)OC2OC(=O)c2ccccc2)cc1 (centres undefined) | -3 | i | 14 | 3 | 7 | 9 | ? | -5
Cc1ccc(-c2nnc(N(C)C(=O)c3ccccn3)s2)cn1 | 0 | i | -7 | 5 | 5 | 1 | -25 | 17
CCN(CC(=O)Nc1c(F)cccc1F)C(=O)/C=C/c1c(C)nn(-c2ccc(F)cc2)c1C | nt | i | -15 | 2 | 0 | nt | 15 | -5
CNC(=S)NNC(=O)c1cc(C(C)(C)C)nn1Cc1ccc(F)cc1 | 0 | i | nt | 2 | 0 | -3 | -4 | -9
COc1ccc(-c2cc(CCCC(=O)NCCc3ccc(OC)cc3OC)no2)cc1 | -3 | i | nt | -4 | -10 | -9 | 8 | -1
CCOC(=O)C1=C(COC(=O)CNC(=O)c2ccccc2F)NC(=O)NC1C (centres undefined) | nt | i | nt | 3 | 2 | nt | -6 | -8
Cc1cc(SCc2cccc(C(F)(F)F)c2)nc(=O)[nH]1 | -10 | i | 1 | -2 | -1 | 0 | nt | -21
Cc1c(N=N/C(C(=O)Nc2ccccc2)=C(/O)c2ccccc2)c(=O)n(-c2ccccc2)n1C | ? | i | nt | -23 | -9 | 0 | 14 | 52
Cc1cc(Br)c2nc3c(c(C(=O)O)c2c1)CCCCC3 | 2 | i | nt | -5 | -2 | -2 | nt | -1
